# nsP2pro inh = blocks chikungunya virus nsP2 protease peptide cleavage; Q8JUX6; FRET peptide cleavage, nsP2pro, fluorescence 1 h; Potency, µM (top dose mostly 24.9 µM), inactives show top-dose activity change, negative = inhibition, most hits filed as inhibitors; hit rate 1.1% among 31,000; active means well fitted inhibition curve with a large enough effect; inconclusive means small, poorly fitted or top-dose-only effect; inactive means no such curve, though single readings can be large or run the other way; further: nearly all actives have a fitted effect of over 60% in size; a reference inhibitor and vehicle were the controls
# Numbers without * were called inactive; i = inactive; ? = inconclusive; ! = not active in a repeat; [ ] = remark or other dose. On the % scale 0 is the no-effect control and ±100 the full control effect; potency means the concentration at half of the fitted maximal effect. The list is partial (hit frequency here may not be typical).
SMILES,nsP2pro inh
COc1ccc2cc1Oc1ccc(cc1)CC1c3cc(c(OC)cc3CCN1C)Oc1c(OC)c(OC)c(OC)c3c1C(C2)N(C)CC3 (centres undefined),?
COc1ccc(S(=O)(=O)N(CCO)c2ccccc2CN(C)C/C=C/c2ccc(Cl)cc2)cc1,16%
O=P(O)(O)C(Cl)(Cl)P(=O)(O)O,0%[2.68 µM]
CCCC[S+](=O)([O-])N1CC(=O)N(CCCc2ccccc2)CC(O)C1 (centres undefined),1%
COc1cccc(C(=O)Nc2ccc(-c3cc(C(F)(F)F)nn3-c3ccccc3)cc2)c1,-12%
O=C(Nc1ccc(F)cc1F)c1ccc(CN2CC(=O)N3CCCCC3C2=O)cc1 (centres undefined),-11%
CN1CCN(Cc2nnc(C3CCN(C(=O)C4(N)CC4)CC3)n2C)CC1,-9%
CC(C)(C)OC(=O)N1CCN(c2ccc(NCc3ccc(-c4ccc(C#N)cc4)o3)cc2)CC1,-8%
Clc1cccc(-c2nnnn2Cc2cccnc2)c1Cl,-10%
O=C(NC1CCCCCC1)c1nnn2cc(-c3ccccc3)[nH]c(=O)c12,3%
CCOC(=O)C(Cc1cccc(N2CCC(Nc3ccccc3)CC2)c1F)OC (centres undefined),-13%
Cc1ccccc1OCC(=O)Nc1ccc(-c2nc3ncccc3o2)cc1,-24%
O=C1CC(c2ccc(O)cc2)Oc2cc(O)cc(O)c21 (centres undefined),-6%
Cc1c(CC(=O)NCc2ccc(F)cc2)c(=O)oc2cc(O)c(Cl)cc12,-15%
CCc1ccc(CNC(=O)c2ccc3nc(SCc4ccc(F)cc4)n(C)c3c2)cc1,-16%
Nc1nc2c(s1)C(c1ccccc1Cl)CC(=O)N2 (centres undefined),10µM*!
Cc1cccc(CNc2ccnc(-c3ccc4ccccc4c3)n2)c1,-13%
COc1ccc(NC(=O)C2CCCN(S(=O)(=O)c3c(C)[nH]c(=O)[nH]c3=O)C2)cc1Cl (centres undefined),-14%
C=CCN1CC2(CCC1=O)CCN(C(=O)C1CC=CCC1)CC2 (centres undefined),0%
CC1(C)[C@H](Cc2cc(CN3CCCCC3)on2)C[C@@H]1N,-11%[39.2 µM]
C[C@@H]1O[C@@H](O[C@H]2[C@H](O[C@H]3CC[C@@]4(C)C(CC[C@]5(C)C4C=C[C@]46OC[C@@]7(CCC(C)(C)C[C@H]74)[C@@H](O)C[C@]65C)[C@]3(C)CO)O[C@H](CO)[C@@H](O)[C@@H]2O[C@@H]2O[C@H](CO)[C@@H](O[C@@H]3O[C@@H](C)[C@H](O)[C@@H](O)[C@H]3O)[C@H](O)[C@H]2O)[C@H](O)[C@H](O)[C@H]1O (some centres undefined),-11%[5.1 µM]
Cc1ccc(NC(=O)Cn2c(=O)n(Cc3ccc4c(c3)OCO4)c(=O)c3ccccc32)c(C)c1,-9%
OC[C@H]1O[C@@H](Oc2cc(O)cc(-c3cc4ccc(O)cc4o3)c2)[C@H](O)[C@@H](O)[C@@H]1O,11%[10 µM]
CC(C)[C@@H]1NC(=O)[C@@H](C(C)C)OC(=O)[C@H](C(C)C)NC(=O)[C@H](C)OC(=O)[C@@H](C(C)C)NC(=O)[C@@H](C(C)C)OC(=O)[C@H](C(C)C)NC(=O)[C@H](C)OC(=O)[C@@H](C(C)C)NC(=O)[C@@H](C(C)C)OC(=O)[C@H](C(C)C)NC(=O)[C@H](C)OC1=O,28%
Cc1cnc(-c2ccccc2C(F)F)nc1NCc1ccc(-n2ccnn2)cc1,2%

# Quoted at random: 4 entries already listed, in no set order.
SMILES,nsP2pro inh
COc1cccc(C(=O)Nc2ccc(-c3cc(C(F)(F)F)nn3-c3ccccc3)cc2)c1,-12%
C=CCN1CC2(CCC1=O)CCN(C(=O)C1CC=CCC1)CC2 (centres undefined),0%
CN1CCN(Cc2nnc(C3CCN(C(=O)C4(N)CC4)CC3)n2C)CC1,-9%
O=C(Nc1ccc(F)cc1F)c1ccc(CN2CC(=O)N3CCCCC3C2=O)cc1 (centres undefined),-11%

# Next compounds follow:
SMILES,nsP2pro inh
Fc1cccc(Nc2nc(-c3ccncc3)nc3ccccc23)c1,-1%
COC(=O)CNC(=O)C(=O)OC,-15%
COc1ccc(-c2cnc3[nH]cc(CC(=O)Nc4ccc(C(F)(F)F)cc4)c3c2)cc1,i
CN(CCc1ccccn1)C(=O)c1ccc2c(c1)[nH]c(=O)n2C1CCC(O)CC1 (centres undefined),i
C[C@]12CCC(=O)C=C1C=C[C@@H]1[C@@H]2CC[C@@]2(C)[C@H]1CC[C@@]2(O)CCC(=O)O,-2%
Cc1cccc(C)c1-n1c(SCC(=O)NCCCCCC(=O)O)nnc1-c1cccc([S+](=O)([O-])N2CCCC2)c1,1%
CCC(CC)(CNC(=O)CCCO)c1cccc(OC)c1,-6%
Cc1ccc(OCCn2c(CCNC(=O)c3ccc[nH]3)nc3ccccc32)cc1,-18%
O=C(CSc1nc2ccncc2[nH]1)Nc1ccccc1C(F)(F)F,-12%
Cc1nc2c(c(SCC(=O)Nc3ccccc3C(F)(F)F)n1)CCC2,-14%
CC(C)CC(NC(=O)C(O)C(N)Cc1ccccc1)C(=O)O (centres undefined),-21%
Cn1ccnc1C(=O)N1C[C@@H](COCC2CC2)[C@H](c2ccncc2)C1,i
Cc1c(C(=O)Nc2cccc(-c3nc4ccccc4s3)c2)oc2ccc(F)cc12,5%
COC[C@H]1C[C@@H](NCc2cccc3c2OCO3)[C@H](O)[C@@H]1O,4%[39.2 µM]
Fc1cccc(CN(C2=NCCN2)c2c(Cl)cccc2Cl)c1,-26%
COc1ccc(OC)c(S(=O)(=O)N2CCCOCCNC(=O)[C@@H]3CCCC[C@@H]32)c1,0%
CCCn1cc(S(=O)(=O)c2cc(C)ccc2C)c(=O)c2cc(F)c(N3CCOCC3)cc21,-13%
COc1cc2c(cc1OCCCN1CCCC1)N=C(N)C21CCC1,5%
Cc1ccc2nc(N3CCN(C(=O)C4CC4)CC3)sc2c1,-21%
Cc1nc2nc(SCc3c(F)cccc3Cl)nn2c(C)c1Cc1ccccc1,-24%
Cc1ccc(C(c2sc3nc(-c4ccco4)nn3c2O)N2CCCCC2)cc1 (centres undefined),-24%
CC[N+](CC)(CC)CCOC(=O)C(C1CCCC1)C1CCCC1,18%
COc1cccc(CN2C(=O)CCCCC2C(=O)NCCc2c[nH]c3ccc(OC)cc23)c1 (centres undefined),3%
Cc1cccc(C(=O)Nc2ccccc2-c2nc(-c3ccccc3)no2)c1,-26%
CCNC(=O)N1CC[C@H]2CC(=O)N(Cc3cccnc3)CC[C@H]2C1,i

# Next section.
SMILES,nsP2pro inh
Cc1ccc(C#N)c(N2CCN(C3CCCC3)C(CCO)C2)n1 (centres undefined),-28%
COc1ccc(C2=Nn3c(nnc3-c3ccc(OC)c(OC)c3)SC2)cc1OC,4%
O=C(Nc1ccc2c(c1)CN(CCc1ccc(F)cc1)C(=O)CO2)c1c(F)cccc1F,2%
CCCn1c(-c2ccc(F)cc2)nc2c(NCCCCN3CCCC3)nc(C)nc21,i
Cc1ccc(N[S+](=O)([O-])c2cc3c(cc2CCc2ccccc2)NC(=O)CO3)cc1C,i
O=C1Nc2ccccc2/C1=C\c1ccc(O)cc1,4%
Cc1nn(C)cc1CN1CCC(O)(c2ccccc2)[C@H](N2CCCC2)C1 (some centres undefined),?
N#Cc1ccc(-c2ccc(=O)n(CC(=O)NCCc3ccccc3)n2)cc1,-8%
CCCCCCCC(=O)OCC(O)CO (centres undefined),-7%
COc1ccc(Nc2nc(N)nc(CSc3nc4ccccc4s3)n2)cc1,-1%
CC(=O)N1CCCN(Cc2nnc(C(=O)N3CCC[C@@H]3C(c3ccccc3)c3ccccc3)n2-c2ccccc2)CC1,-3%
CCOC(=O)c1ccc(Nc2nc3nonc3nc2Nc2cccc(C)c2C)cc1,-12%
O=C(O)CCc1cccc(O[C@@H]2O[C@H](CO)[C@@H](O)[C@H](O)[C@H]2O)c1O,133%[activator]
C=CCCC(CN1CCCC1)Oc1ccc(-c2ccccc2)nn1 (centres undefined),0%
COC(=O)/C=C/C(=O)N(O)CCCCNCc1ccc(COC(=O)Nc2cccc3ccccc23)cc1,299%[activator]
Cc1cccc(C(=O)Nc2nnc(S(=O)(=O)N(C)Cc3ccccc3)s2)c1,-16%
O=C1CC(C(=O)O)C2(CCN(c3cc(C(=O)O)c4ccccc4n3)CC2)N1 (centres undefined),-3%
CC(=O)O/N=C1/C(c2c(O)[nH]c3cc(Br)ccc23)=Nc2ccccc21,-14%
CCOC(=O)CN[C@@H](C(=O)N1CC[C@H]1C(=O)NCc1ccc(/C(N)=N/O)cc1)C1CCCCC1,-7%
CCN1CCN(Cc2ccc(NC(=O)Nc3ccc(Oc4cc(NC)ncn4)cc3)cc2C(F)(F)F)CC1,30%
C=C1CCC2[C@](C)(CCC[C@]2(C)C(=O)O)[C@H]1CC/C(C)=C/C(=O)OC (some centres undefined),?
Cc1ccc(-c2csc(=Nc3ccccc3)n2CCCO)cc1,-25%
C=C(NC(=O)C(=C)NC(=O)c1csc(C2=N[C@H]3c4csc(n4)[C@H]4NC(=O)c5csc(n5)[C@H]([C@@](C)(O)[C@@H](C)O)NC(=O)[C@H]5CSC(=N5)C(=CC)NC(=O)[C@H]([C@@H](C)O)NC(=O)c5csc(n5)[C@]3(CC2)NC(=O)[C@H](C)NC(=O)C(=C)NC(=O)[C@H](C)NC(=O)[C@H](C(C)CC)N[C@@H]2C=Cc3c([C@H](C)O)cc(nc3[C@H]2O)C(=O)O[C@@H]4C)n1)C(N)=O (some centres undefined),51%[activator]
C[C@@H]1O[C@@H](OC[C@H]2O[C@@H](OCC3CCC4CC3C4(C)C)[C@H](O)[C@@H](O)[C@@H]2O)[C@H](O)[C@H](O)[C@H]1O (some centres undefined),?
O=C1c2ccccc2C(=O)N1c1cccc(Cl)c1,-5%

# The list goes on:
SMILES,nsP2pro inh
CCOc1ccc(NC(=O)c2c(NC(=O)Cc3ccccc3)sc3c2CCC(C)C3)cc1 (centres undefined),3.4µM*
Cc1ccc(NC(=O)c2cccc3c(=O)c4c([nH]c23)CCCC4)c(C)c1,-3%
O=[N+]([O-])c1ccc(O/N=[N+](\[O-])N2CCN(c3ncccn3)CC2)c([N+](=O)[O-])c1,-25%
CCC(C)NC(=O)c1ccc(Cn2c(=O)c3cccn3c3cccnc32)cc1 (centres undefined),-18%
COCCOCC(=O)N1CCC(N2C[C@H](OC)[C@@H]2c2cccnc2)CC1,-14%
CCc1cc2c(cc3c(=O)n(CC(=O)N4CCC(C)CC4)nc(CC)n32)s1,-8%
O=S(=O)(F)Cc1ccccc1,?
O=C1NCC2(CCCN(C(=O)c3cnc4c(O)cccn4c3=O)C2)O1 (centres undefined),?
CC(C)(C)c1ccc(C(O)CCCN2CCC(C(O)(c3ccccc3)c3ccccc3)CC2)cc1 (centres undefined),-5%
COCC1CN(C)CC12CCN(C(=O)COc1cccc(C)c1)CC2 (centres undefined),0%
Cc1cc(NC(=O)Nc2nnc(C3CCCCC3)s2)ccc1F,i
O=S(=O)(c1ccc(Cl)cc1)c1nc(-c2cccs2)oc1SCc1ccc(F)cc1,17%
Cc1ccccc1OCc1ccc(-c2nc(C#N)c(NCc3cccnc3)o2)o1,16%
COc1ccc(CNC(=O)Cn2c(SCC(=O)N(C)c3ccccc3)nc3ccccc32)cc1,-11%
O=C(Nc1cccc(C(F)(F)F)c1)C1CCN(c2nnc(-n3cccc3)s2)CC1,-23%
COc1ccc(CC(=O)NCc2nc3cccnc3n2Cc2ccc(C)cc2)cc1,-15%
S=C(S)OC1CC2CC1C1CCCC21 (centres undefined),-38%
Cc1ccccc1-c1csc2ncnc(Sc3nnnn3C)c12,i
COCCNC(=O)C1CC(c2ccccc2)CN(C(=O)NCc2ccccc2)C1 (centres undefined),-2%
COc1ncccc1-c1cc2c(nc1OC)nc(CCc1ccccc1)n2C,-4%[39.2 µM]
CCCn1c(C)nc2c(NCCO)nc(C)nc21,-17%
Cn1cc(C(=O)N2CCN(c3cccc(C(F)(F)F)c3)CC2)c2c3ccccc3n(C)c2c1=O,-10%
N[C@H](Cc1ccccc1)C(=O)O,-1%[10 µM]
Cc1nc(C(=O)N2CCC[C@H]2Cc2nnc(-c3ccccc3)o2)c(-c2ccccc2F)s1,-4%
O=C(NCCO)c1cccc(-c2cc(Nc3ccc(OC(F)(F)F)cc3)ncn2)c1,115%[activator]
CN1c2cccnc2CNCC[C@H]1CO,i
CCCNC(=O)c1c(C)nn(-c2cccc(C)c2)c1-n1cccc1,-18%
C=C1CC[C@@]2(OC1)O[C@H]1CC3[C@@H]4CC=C5C[C@H](O[C@H]6OC[C@@H](O)C(O)[C@@H]6O[C@@H]6O[C@@H](C)[C@H](O)[C@@H](O[C@@H]7O[C@H](CO)[C@@H](O)[C@H](O)[C@H]7O)[C@H]6O)C[C@@H](O)[C@]5(C)C4CC[C@]3(C)[C@H]1[C@@H]2C (some centres undefined),28%[5.1 µM]
Cc1cccc(CNc2nc(-c3ccccc3C(C)C)ncc2C)c1,i

# Arranged by length of the SMILES (low to high): part of the list above.
SMILES,nsP2pro inh
O=S(=O)(F)Cc1ccccc1,?
S=C(S)OC1CC2CC1C1CCCC21 (centres undefined),-38%
Cc1cccc(CNc2nc(-c3ccccc3C(C)C)ncc2C)c1,i
O=C1NCC2(CCCN(C(=O)c3cnc4c(O)cccn4c3=O)C2)O1 (centres undefined),?
COc1ccc(CC(=O)NCc2nc3cccnc3n2Cc2ccc(C)cc2)cc1,-15%
COCCOCC(=O)N1CCC(N2C[C@H](OC)[C@@H]2c2cccnc2)CC1,-14%
COc1ccc(CNC(=O)Cn2c(SCC(=O)N(C)c3ccccc3)nc3ccccc32)cc1,-11%

# Screens (PubChem)
